CapD inh = CapD enzyme inhibition; purified CapD enzyme, fluorescence intensity read-out; stronger effect = lower value; some hits fall short of the stated cut; z-score (no concentration beside the values); 140,000 tested, 0.23% active;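 active = z-score under -4 in either of two replicates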;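 note: stock transfer was 100 nL into about 40 µL; score is relative to mean and spread of the plate; one replicate is shown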
AID504770 = E. coli YBA685 growth inhibition, screen for V. cholerae RctB inhibitors. z-score (test concentration not listed). 130,000 tested, 0.27% active. E. coli YBA685 rctB-dependent plasmid, OD600 growth, 3 h; stronger effect = lower value. AID 504770;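 active = z-score under -2 on both plates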;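 note: wells of about 30 µL received 100 nL stock; score is relative to mean and SD of the test wells; the first replicate is given; strong numbers were not always called active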
Numbers without * were called inactive; nt = not tested or not shown; & = joins results of further samples.

The line under a structure holds: CapD inh | AID504770
1: Clc1ccc(CSc2snnc2-c2ccccc2)c(Cl)c1
    -0.03 | nt
2: CCC1CCCCN1C(=O)CSc1nnc(-c2ccccc2)o1 (centres undefined)
    0.29 | 0.8
3: Cc1ccc(C(=O)C(C)OC(=O)C2CC(=O)N(C3CCCCC3)C2)cc1 (centres undefined)
    nt | 0.1
4: CCN(C(C)=O)c1nc(-c2ccc(Br)cc2)cs1
    -0.45 | 0.5
5: COc1ccc(-c2nnc(-c3c(C)noc3C)o2)cc1
    0.11 | 0.5
6: CN(c1ccc(Cl)cc1)S(=O)(=O)c1cccc(C(=O)Nc2ccccc2)c1
    0.06 | 0.3
7: CSc1nc(-c2cccs2)cc(C(F)(F)F)c1C#N
    101 | -0.6
8: O=C(Cc1ccccc1)N1CCC(O)(c2cccnc2)CC1
    nt | -0.05
9: C=C(C)c1cccc(C(C)(C)NC(=O)N2CCC(C(=O)OCC)CC2)c1
    0.055 | 0
10: CN(C)/C=C1\S/C(=N\S(=O)(=O)c2cccs2)N(c2ccccc2)C1=O
    nt | -0.35
11: c1ccc2c(c1)ncn1nc(-c3cc(C4CC4)[nH]n3)nc21
    nt | 1.8
12: Nc1ccccc1C(=O)Cc1ccccc1
    6.4 | 0.65
13: O=C(/C=c1\[nH]c(=O)/c(=C\c2ccsc2)s1)c1ccco1
    nt | -0.15
14: O=C(CCn1c(=O)sc2ccccc21)Nc1ccccn1
    nt | 0.5
15: Cc1ccc(C(C(=O)NC2CCCC2)N2CCN(C(=O)c3ccco3)CC2)cc1 (centres undefined)
    -0.11 | -0.2
16: CCOC(=O)c1c(C)n(Cc2ccccc2)c2c1cc(O)c1c2c(-c2ccccc2)nn1-c1ccccc1
    4 | nt
17: CCCOC(=O)c1ccc(NC(=O)c2ccc3c(c2)OCCO3)cc1
    -0.15 | nt
18: CCN(CC)c1ccc(-c2c(C#N)c(N)nc(OC)c2C#N)cc1
    17 | nt
19: c1ccc(-n2ncc3c(NCc4ccccn4)ncnc32)cc1
    nt | -0.25
20: COC(=O)c1c(C)nn(C(=O)c2cccs2)c1-c1snnc1C
    9.3 | -1.2
21: O=C(CSc1c2c(nc3cc(Cl)ccc13)CCCC2)N1CCCCCC1
    5.3 | -0.55
22: CN1CCN(Cc2c(O)ccc3c(=O)c(-c4cccc(Cl)c4)c(C(F)(F)F)oc23)CC1
    0.49 | nt
23: CCn1c2ccccc2c2nnc(N3CCC(C(N)=O)CC3)nc21
    0.02 | -0.8
24: Cc1ccc(C(C(=O)NC2CCCCC2)N(C(=O)Cc2c[nH]c3ccccc23)C2CC2)o1 (centres undefined)
    nt | -0.4
25: Cn1nc(C(=O)NCc2ccco2)c2c1-c1ccccc1SC2
    -0.24 | -0.55
26: COc1ccccc1N1CCN(S(=O)(=O)c2ccc(F)c(C(=O)Nc3cc(Cl)ccc3Cl)c2)CC1
    0.04 | nt
27: N#Cc1ccc(NC(=O)COC(=O)c2cccc(S(=O)(=O)N3CCCC3)c2)cc1
    nt | -0.4
28: COC(=O)c1ccc(CSc2nc(=O)n3cc(C)ccc3n2)o1
    nt | -1.6
29: Nc1nnc(SCC(=O)OCC(=O)Nc2ncc(Cl)cc2Cl)s1
    nt | 1.5
30: O=c1[nH]c2ccccc2nc1C(F)(F)C(F)(F)C(F)(F)C(F)F
    2.3 | -0.2
31: CC(=O)Nc1ccc(OC(=O)c2cc3ccccc3oc2=O)cc1
    0.36 | -0.4
32: COCc1nc2ccccc2n1C(C)C
    0.13 | -0.7
33: CCCCOc1ccc(C(=O)Nc2c3c(nn2-c2ccc([N+](=O)[O-])cc2)CS(=O)(=O)C3)cc1
    -0.47 | nt
34: CC1(C)Cc2cccc(OCC(=O)N3CCN(S(=O)(=O)c4ccc(F)cc4)CC3)c2O1
    nt | 1
35: Fc1ccc(-n2nnc3c(SCc4ccc(C(F)(F)F)cc4)ncnc32)cc1
    -1.3 | -1.1
36: Cc1onc(-c2ccccc2)c1C(=O)OCCCn1c(=O)[nH]c2ccccc21
    nt | 1.5
37: Cc1cc(C)c(C#N)c(OCC(=O)Nc2ccccc2)n1
    22 | -0.85
38: Cc1sc2ncnc(NC3CCN(Cc4ccccc4)CC3)c2c1C
    0.31 | -0.6
39: Cn1c(=O)c2c(-c3ccc(Cl)cc3)n(C3CCCCC3)cc2n(C)c1=O
    26 | 0.6
40: CN(C)C(Cl)=Nc1ccccc1
    nt | 2.5
41: Cc1ccc(-c2n[nH]c(=S)o2)cc1
    16 | 1.2
42: O=c1[nH]c(SCCN2CCOCC2)nc(O)c1-c1ccccc1
    0.58 | 0.3
43: CCN(CC)c1ccc(NC(=O)c2oc3ccccc3c2COC)cc1
    nt | 0.25
44: CCOC(=O)c1ccc(NC(=O)c2ccc(C(C)(C)C)cc2)cc1
    0.21 | -0.7
45: CCn1c(/C=C/Nc2ccccc2)[n+](CC)c2ccc(S(=O)(=O)C(F)(F)F)cc21
    -1.9 | 0.1
46: CCN(CC)C(=O)CSc1nc(-c2ccccc2)c(-c2ccccc2)o1
    nt | -0.4
47: NC(=O)CSC1=Nc2ccccc2C2=NC(CCC(=O)NCc3cccs3)C(=O)N12 (centres undefined)
    27 | -1.1
48: CN(C/C=C/c1ccccc1)Cc1cccc2ccccc12
    0.15 | nt
49: Cc1cc(C(=O)Nc2ccccc2)nn1C(C)(C)C
    -0.48 | 1.8
50: O=c1ccc(=O)n(CCO)[nH]1
    -0.15 | 0
51: Cn1c(=O)[nH]c(=O)c2c1nc(N1CCCC1)n2CCCc1ccccc1
    0.66 | 0.45
52: COc1nccc(C(F)(F)F)c1C(=O)NC(=O)Nc1c(C)cccc1C
    0.27 | -0.15
53: O=C(CCCC(=O)N1CCCc2ccccc21)N1CCCc2ccccc21
    -0.05 | 1.5
54: CCOc1ccc(S(=O)(=O)N2CCN(c3ccccc3Cl)CC2)c2cccnc12
    0.085 | nt
55: CC(=O)Nc1ccc(OC(=O)c2cccc(Cl)c2)cc1
    0.17 | 0.55
56: CCN1CCc2nc(NC(=O)c3ccccc3)sc2C1
    -0.35 | 0.3
57: Cc1sc(-c2ccccc2)nc1CC(=O)NC1CCCCC1
    3.2 | nt
58: CC(C)N1C(=O)CCC1C(=O)N1CCN(c2ccc(F)cc2)CC1 (centres undefined)
    0.38 | 1.6
59: CN(C)CCC(O)(CCc1ccccc1)c1ccccc1 (centres undefined)
    0.51 | -0.55
60: O=C1NC(=S)N(c2ccc(Br)cc2)C(=O)/C1=C/c1ccsc1
    0.15 | -0.65

Compounds from the list above containing bromine (2):
The line under a structure holds: CapD inh | AID504770
4: CCN(C(C)=O)c1nc(-c2ccc(Br)cc2)cs1
    -0.45 | 0.5
60: O=C1NC(=S)N(c2ccc(Br)cc2)C(=O)/C1=C/c1ccsc1
    0.15 | -0.65

Additional structures.
The line under a structure holds: CapD inh | AID504770
61: CCOC(=O)N1CCC(Nc2ncnc3c2cnn3-c2cccc(C)c2)CC1
    -0.57 | nt
62: c1ccc(-n2nnnc2SCC2CCCCO2)cc1 (centres undefined)
    nt | 0.55
63: O=C(Oc1ccccc1N(C(=O)c1ccccc1)S(=O)(=O)c1ccccc1)c1ccccc1
    -0.68 | 2.1
64: COc1ccc(-c2ccc(/C=C3\C(=O)N(c4cccc(Br)c4)N=C3C)o2)cc1[N+](=O)[O-]
    0.78 | nt
65: O=C(C1CCCO1)N1CCN(C/C=C/c2ccccc2)CC1 (centres undefined)
    0.94 | -1.1
66: CC(=O)N1c2ccccc2NC(=O)C1CC(=O)Nc1cccc(C)c1 (centres undefined)
    nt | 0.95
67: CCOc1ccc2[nH]c(=O)c(CN(CCOC)C(=O)Nc3ccccc3C)cc2c1
    nt | -0.3
68: NC(C(=O)O)c1ccc(CCCC(=O)O)s1 (centres undefined)
    -0.1 | -0.55
69: O=c1cccc2n1CC1CC2CN(c2ncnc3c2cnn3-c2ccccc2)C1 (centres undefined)
    -0.28 | nt
70: CC(C)NS(=O)(=O)c1ccc(Cl)s1
    0.2 | -0.45
71: Cc1ccc(NC(=O)C2C3CCCC2C3c2ccccc2)c(C)c1 (centres undefined)
    -0.37 | nt
72: C=CCNC(=O)CCN1c2ccccc2Sc2ccccc21
    nt | 0.1
73: CC1CCCC(C)N1C(=O)c1cc2cccnc2n(Cc2ccccc2)c1=O (centres undefined)
    nt | -0.3
74: CCOC(=O)c1cc2c(=O)n3cc(C)ccc3nc2n(Cc2ccco2)c1=N
    -1.2 | 0.9
75: O=C(CSc1cccc(C(F)(F)F)c1)Nc1ccc(F)cc1F
    -0.2 | 0.85
76: N/C(=N\OC(=O)c1ccc2ncsc2c1)c1ccccc1
    0.93 | -0.75
77: COc1ccc2ccccc2c1C=Nc1ccccc1C#N
    1.8 | 0.35
78: O=C(NCc1ccccn1)c1ccc(CSc2nc3ccncc3n2Cc2ccc(F)cc2)cc1
    0.19 | -0.45
79: O=C(C1Cc2ccccc2CN1C(=O)c1ccco1)N1CCc2ccccc21 (centres undefined)
    nt | -0.1
80: CCc1cccc2c(C#N)cn(CC(=O)N(CC)CC)c12
    nt | -0.65
81: N#CCCN(Cc1cccs1)C(=O)Nc1ccc2c(c1)CCO2
    -0.38 | 0
82: CC1(C)CCCN(S(=O)(=O)c2cccc(Cl)c2Cl)C1
    0.57 | nt
83: NNC(=O)c1cc2ccccc2cc1O
    -0.16 | -0.75
84: CC(C)C(N)C(O)(c1ccccc1)c1ccccc1 (centres undefined)
    -0.73 | -0.35
85: CC(N)Cc1cn(Cc2ccccc2)c2ccccc12 (centres undefined)
    nt | -1.1
86: N#Cc1cc(C#N)c(SCC(=O)N2CC(=O)Nc3ccccc32)nc1N
    nt | -0.6
87: CC(C)(C)OC(=O)C(Cc1c[nH]c2ccccc12)NC(=O)OCc1ccccn1 (centres undefined)
    -0.16 | nt
88: COc1ccc2cc(CN(Cc3nnnn3Cc3ccccc3)C3CCCC3)c(=O)[nH]c2c1
    nt | 1.6
89: N#Cc1c(SCC(=O)Nc2nccs2)nc(N2CCOCC2)c2c1CCCC2
    nt | 1.4
90: COCc1oc2c(cc(NS(=O)(=O)c3ccc(Cl)cc3)c3ccccc32)c1C(=O)OC
    0.32 | nt
91: Cc1nn(C)c(C)c1P(=S)(N(C)C)N(C)C
    nt | 0.15
92: CCOC(=O)Nc1ccc2c(c1)N(C(=O)N1CCOCC1)c1ccccc1CC2
    0.24 | nt
93: COc1cccc(C(=O)Nc2cccc(N=C(N)CCC(=O)O)c2)c1
    0.02 | -0.9
94: CC1CC(O)NN=C1c1ccc2nc(COc3ccccc3O)[nH]c2c1 (centres undefined)
    nt | 0.4
95: CCOC(=O)c1nc2ccc(I)cn2c1Br
    0.71 | nt
96: O=C(Cn1c(N2CCCCC2)nc2ccccc21)c1ccccc1
    -0.15 | -0.75
97: O=C1OC2(CCCC2)OC(=O)C1=Cc1c[nH]c2ccccc12
    2.9 | 0.5
98: Cc1oc(-c2ccccc2)nc1CSc1nncn2c1cc1occc12
    0.39 | -0.15
99: COc1cc2c(cc1OC)C(=O)CSC(c1cccs1)N2 (centres undefined)
    -0.34 | nt
100: N#Cc1ccccc1Cn1c(=O)n(CCCC(=O)NC2CCN(Cc3ccccc3)CC2)c(=O)c2ccccc21
    -0.23 | 0.95

An excerpt of the results above:
The line under a structure holds: CapD inh | AID504770
81: N#CCCN(Cc1cccs1)C(=O)Nc1ccc2c(c1)CCO2
    -0.38 | 0
82: CC1(C)CCCN(S(=O)(=O)c2cccc(Cl)c2Cl)C1
    0.57 | nt
83: NNC(=O)c1cc2ccccc2cc1O
    -0.16 | -0.75

The results go on.
The line under a structure holds: CapD inh | AID504770
101: c1ccc(-c2nc(Sc3ncnc4c3cnn4-c3ccccc3)n[nH]2)cc1
    -0.71 | 1.5
102: Cc1cc(NS(=O)(=O)c2ccc3[nH]c(=O)ccc3c2)ccc1Br
    0.57 | 1.6
103: CCOc1cc(C2C(C(=O)OCCSCC)=C(C)NC3=C2C(=O)CC(c2ccc(OC)cc2)C3)ccc1O (centres undefined)
    9.9 | nt
104: CC(C)(C(N)=O)N1CCN(c2ncc(C(F)(F)F)cc2Cl)CC1
    -0.94 | nt
105: Cc1c(C)c(C)c(C(=O)c2ccc(Cl)cc2)c(C)c1C
    -0.15 | nt
106: N#Cc1nc(COc2ccccc2Cl)oc1N1CCCC1
    -0.59 | -0.4
107: Nc1ncnc2c1cnn2Cc1ccccc1
    nt | 0
108: NCCc1nnc(SCc2ccc(Cl)cc2)o1
    nt | 0.35
109: O=C(c1sc2ccccc2c1Cl)N1CCCCC1
    -0.01 | -0.55
110: CCCCN1C(=O)c2ccc(C(=O)OCC(=O)Nc3ncc(Cl)cc3Cl)cc2C1=O
    nt | -0.15
111: CS(=O)(=O)/C(C#N)=C/N=S(C)(=O)c1ccsc1 (centres undefined)
    -0.14 | 0.1
112: O=C(NCC1COc2ccccc2O1)Nc1ccc(NC(=O)NCC2COc3ccccc3O2)cc1 (centres undefined)
    nt | 0.25
113: O=C1N(CN2CCCCCC2)c2ccccc2C12OCCO2
    -0.15 | 0.2
114: Nc1ccc(C(=O)NCC2COc3ccccc3O2)cc1 (centres undefined)
    -0.65 | -1.4
115: O=C(Nc1nccs1)c1ccc(N2C(=O)CCC2=O)cc1
    nt | -0.1
116: CC1(C)CC(=O)C2=C(C1)N=C1c3ccccc3C(=O)C1C2c1ccc(O)c(O)c1 (centres undefined)
    -2.4 | -1.6
117: O=C1/C(=C/c2ccc3c(c2)OCO3)CC/C1=C\c1ccc2c(c1)OCO2
    -0.53 | nt
118: CCOc1cccc(NC(=O)C2CC(=O)N(/N=C(\C)c3ccc(Br)s3)C(=N)S2)c1 (centres undefined)
    0.03 | -0.35
119: O=C(CCn1cccc1)NC1CC1
    -0.88 | -0.15
120: CCc1cc(=O)oc2c(O)c(O)ccc12
    -3.2 | -0.2
121: CC(=O)OC1CCC23COC(CC4C5CCC(OC(=O)c6ccccc6)C5(C)CCC42)[C@@]3(Br)C1 (some centres undefined)
    -0.02 | nt
122: CCc1cc2c3c(c(=O)oc2cc1OC)CCCC3
    0.24 | -0.25
123: O=C(CSc1ccccn1)Nc1ccc(Br)cc1
    -0.29 | nt
124: Cc1nc2nc(COc3ccccc3)[nH]n2c(=O)c1C
    -1.1 | -0.55
125: COc1cc(CCC(C)N)ccc1O (centres undefined)
    -0.2&0.1&-0.09 | nt

Screens as filed in PubChem.

This is a subset. The share of hits here may be higher or lower than overall.
